# Assay outcomes from PubChem BioAssay.
# Rango-impB inh = prevents formation of the Rango-importin beta complex. 340,000 compounds, 0.031% hits. Q14974. Potency, µM (highest dose often 92.2 µM), inactives show top-dose inhibition of complex formation. Rango CFP/YFP FRET sensor + importin beta, 45 min; active = rising FRET ratio curve, often small or poorly fitted; inconclusive = mostly compound fluorescence or quenching in the first reads; inactive = flat curves in all reads;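 further: potency means the concentration at half of the fitted maximal effect; 0% = DMSO wells and 100% = buffer wells lacking importin beta; nearly all actives have a fitted effect of over 15% in size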
# Target sequence (Q14974 whole entry, looked up): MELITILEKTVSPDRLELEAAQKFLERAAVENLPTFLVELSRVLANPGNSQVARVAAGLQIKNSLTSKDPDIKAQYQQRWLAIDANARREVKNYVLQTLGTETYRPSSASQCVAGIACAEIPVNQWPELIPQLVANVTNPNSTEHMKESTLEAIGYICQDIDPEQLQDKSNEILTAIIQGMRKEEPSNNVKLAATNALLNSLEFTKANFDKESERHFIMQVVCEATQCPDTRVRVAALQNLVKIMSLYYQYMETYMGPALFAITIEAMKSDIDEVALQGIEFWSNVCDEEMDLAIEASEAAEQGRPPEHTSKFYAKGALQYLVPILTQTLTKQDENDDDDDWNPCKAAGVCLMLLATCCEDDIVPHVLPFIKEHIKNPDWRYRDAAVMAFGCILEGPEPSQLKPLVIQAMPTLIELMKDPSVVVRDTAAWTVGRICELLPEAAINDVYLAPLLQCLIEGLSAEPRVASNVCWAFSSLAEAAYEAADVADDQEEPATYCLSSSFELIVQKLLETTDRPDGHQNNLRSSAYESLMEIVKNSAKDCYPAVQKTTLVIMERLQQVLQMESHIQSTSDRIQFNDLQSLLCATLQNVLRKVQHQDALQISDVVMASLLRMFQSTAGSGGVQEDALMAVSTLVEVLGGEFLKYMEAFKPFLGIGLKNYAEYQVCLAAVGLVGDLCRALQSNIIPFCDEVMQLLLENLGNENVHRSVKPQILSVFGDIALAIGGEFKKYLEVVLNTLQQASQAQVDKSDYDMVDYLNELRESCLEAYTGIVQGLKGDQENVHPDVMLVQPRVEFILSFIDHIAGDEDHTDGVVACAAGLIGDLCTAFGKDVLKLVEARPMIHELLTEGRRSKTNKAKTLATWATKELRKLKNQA
#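 Inhibition scored from the CFP 486 nm/YFP 530 nm FRET ratio 45 min after adding 0.125 microM importin beta to 50 nM Rango biosensor preincubated 5 min with compound (room temperature, PBS with DTT, Tween-20, BSA). No-importin wells as positive control.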
# GLA inh pH 4.5 = inhibitors of human alpha-galactosidase A at pH 4.5; P06280; purified enzyme, 4-MU-alpha-Gal fluorescence, pH 4.5; activity change, negative = inhibition, % at 105 µM; 230,000 tested, under 10 active; AID 1467; inconclusive = small, poorly fitted or top-dose-only inhibition, or a rising curve; inactive = flat fitted curve, though single readings scatter; no compound was filed as active;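 further: 0% = full activity with enzyme and -100% = basal without enzyme; dose as in the result columns while the protocol names 77 µM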
# miR-21 FLuc = raises the signal of a miR-21 reporter; HeLa miR-21 FLuc reporter, luciferase, 48 h; Potency, µM (series often up to 38.3 µM), inactives show top-dose reporter change, positive = more light; 340,000 tested, under 10 active; AID 2288; active = well fitted rising curve with a large enough effect; inconclusive = small, poorly fitted or top-dose-only effect; inactive = no such curve, though single readings can be large or run the other way;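 further: % of control where 0% means no effect; miR-21 action dims this reporter so a rising signal means less miR-21 action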
#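 HeLa miR-21-FLuc reporter line, endogenous miR-21; 2000 cells/well in DMEM/10% FBS; compound titration up to ~40uM final, 48 h, 37 degree Celsius; luciferase detection reagent, 15 min lysis, CCD luminescence.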
# Rango release inh = inhibitors of RanGTP-induced Rango-importin beta complex dissociation; O95149+P62826; Biochemical FRET Rango-importin beta, RanGTP-induced dissociation; Potency, µM (series often up to 46.1 µM), for the others: top-dose activity change, negative = inhibition; 340,000 compounds, 0.071% hits; AID 540253; active means falling FRET ratio curve, often poorly fitted, with flat reads before Ran was added; inconclusive means other falling curves, or compound fluorescence or quenching; inactive means flat or rising ratio curve;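 further: potency means the concentration at half of the fitted maximal effect; % of control where 0% means no effect; nearly all actives have a fitted effect of over 45% in size; -100% = wells without RanGTP and RCC1; the record marks most hits as doubtful in a second field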
#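 Recombinant Rango FRET biosensor (EYFP–snurportin 1 IBB–cerulean CFP10) at 0.1 uM premixed with 0.25 uM importin beta in PBS, 1 mM DTT, 0.02% Tween-20, 0.1% BSA. Compound added 5 min; RanGTP-RCC1 (0.6 uM Ran, 2 mM GTP, 0.2 uM RCC1) then triggers release, read at 45 min.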
# Starred values were filed as active, the others as inactive; ? = inconclusive; · = not tested or not shown; & = joins results of further samples. The list is partial, so the mix of outcomes need not match the whole.
SMILES,Rango-impB inh,GLA inh pH 4.5,miR-21 FLuc,Rango release inh
Cc1ccc(NC(=O)CN2C(=O)C(C)Oc3ccccc32)nc1 (configuration not stated),-0.5%,0,-14%,0%
CCOC(=O)c1ccc(-c2ccc(/C=N/NC(=O)CN(c3ccccc3Cl)S(C)(=O)=O)o2)cc1,0.0%,2,-19%,-11%
Cc1sc2nc(SCc3ccccc3)n(Cc3ccco3)c(=O)c2c1C,-1.5%,3,-3%,-6%
Fc1cccc(Cc2noc(CN3CCCCC3c3ccccn3)n2)c1 (configuration not stated),-1.4%,3,-38%,6%
Cc1ccc(-c2cc(C(=O)NCCCN3CCCC3)c3ccccc3n2)cc1C,2.5%,·,-18%,1%
COc1ccccc1NC(=O)C1=C(C)Nc2nnnn2C1c1cccc(Br)c1 (configuration not stated),2.1%,3,13%,-2%
O=C(NC(=S)Nc1cc([N+](=O)[O-])ccc1O)C1CC1,0.3%,·,-19%,-9%
COc1ccc(C(C)NC(=O)Cc2cccs2)cc1OC (configuration not stated),-3.0%,·,1%,-15%
COc1ccc(-c2nnc(SCC(=O)NCc3cccs3)n2CC(C)C)cc1,5.5%,-1,-2%,5%
COc1ccc(N(C(=O)c2cnccn2)C(C(=O)NC2CCCCC2)c2ccc(O)cc2)cc1 (configuration not stated),1.2%,-6,-8%,-8%
COc1cc(C(O)C(=O)O)ccc1O (configuration not stated),-5.8%,-5,·,10%
O=C(CN1CCN(Cc2ccc3c(c2)OCO3)CC1)c1c[nH]c2ccccc12,0.1%,-7,-12%,-13%
COc1ccc(NC(=O)CSc2nccn2Cc2ccc(F)cc2)cc1,-0.6%,·,-6%,12%
CC(C)(C)c1ccc(C(=O)N2CCC(C(=O)c3ccccc3)CC2)cc1,0.5%,·,3%,14%
COc1ccc(CN(C(=O)CNC(=O)c2ccco2)C(C(=O)NCC2CCCO2)c2ccc(OC)c(OC)c2)cc1 (configuration not stated),-1.5%,·,-4%,0%
COc1cccc(C(=O)N2N=C(c3ccccc3)CC2(O)C(F)(F)F)c1 (configuration not stated),-2.3%,-13,-10%,-17%
COc1ccc(CCNC(=O)c2ccc(-c3ccc([N+](=O)[O-])cc3)o2)cc1OC,?,-3,8%,?
COc1cc(Cn2c(N)c(C#N)c3nc4ccccc4nc32)cc(OC)c1,?,-6,-3%,?
CCOc1cc(/C=C2\CCn3c2nc2cc(Cl)ccc2c3=O)ccc1O,-0.4%,·,0%,4%
Cc1ccc(S(=O)(=O)N2CCC(C(=O)C3C(=O)CCCC3=O)CC2)cc1,-0.6%,13,-4%,3%
CCN(CC(=O)NCc1cccs1)C(=O)c1ccc([N+](=O)[O-])o1,0.4%,·,·,-12%
CN1CCc2c(C#N)c(N3CCCCC3)nc(N3CCOCC3)c2C1,-0.6%,·,·,-8%
COc1ccc(CCNC(=O)CSc2ccccn2)cc1OC,-0.4%,3,-2%,4%
CCOC(CNC(=O)CN1C(=O)COc2ccc(S(=O)(=O)N3CCOCC3)cc21)OCC,?,·,1%,1%
COc1ccc(OCc2cc(C(=O)N3CCCC(OC)C3)no2)c2ccccc12 (configuration not stated),0.7%,·,-67%,11%

# A few values from the list:
# CCOC(=O)c1ccc(-c2ccc(/C=N/NC(=O)CN(c3ccccc3Cl)S(C)(=O)=O)o2)cc1 in GLA inh pH 4.5 reads 2
# O=C(NC(=S)Nc1cc([N+](=O)[O-])ccc1O)C1CC1 in Rango-impB inh reads 0.3%

# Just Rango release inh, for some of the entries so far:
compound | Rango release inh
CCOC(=O)c1ccc(-c2ccc(/C=N/NC(=O)CN(c3ccccc3Cl)S(C)(=O)=O)o2)cc1 | -11%
COc1ccc(C(C)NC(=O)Cc2cccs2)cc1OC (configuration not stated) | -15%

# (cont.)
SMILES,Rango-impB inh,GLA inh pH 4.5,miR-21 FLuc,Rango release inh
CC(C)Oc1ccc(CCNC(=O)C2CCC(=O)N(Cc3cccc(F)c3)C2)cc1 (configuration not stated),-1.9%,·,-9%,-14%
COc1cc(OC)cc(C(=O)OC(C)C(=O)NC2CCCc3ccccc32)c1 (configuration not stated),-0.8%,·,·,-8%
CC(C)CC1(C)NC(=O)N(CC(=O)Nc2ccc(F)c(F)c2F)C1=O (configuration not stated),-4.6%,·,·,-1%
O=C(NCCc1ccccc1)C1CCN(Cc2cccc3ccccc23)CC1,-1.3%,·,-2%,0%
Cc1ccc(SCC(=O)Nc2cc([N+](=O)[O-])ccc2O)cc1,?,-5,-30%,-22%
Cc1cc(C)n(-c2nc3sc4c(c3c3nnc(SCC(N)=O)n23)CC(C)(C)OC4)n1,-3.5%,1,-8%,4%
CC(C)(C)C(=O)NC1(C(F)(F)F)C(=O)Nc2c1c(=O)[nH]c(=O)n2Cc1ccco1 (configuration not stated),3.6%,11,-5%,-5%
COCCN(C(=O)COC(=O)c1ccc(C)s1)c1c(N)n(Cc2ccccc2)c(=O)[nH]c1=O,?,·,·,1%
COc1ccc(/C(C)=N/N2C(C)CCCC2C)c(OC)c1 (configuration not stated),0.2%,·,0%,2%
N#CCSc1nc2ccc(N3CCOCC3)cc2c(=O)n1CCc1ccccc1,-6.3%,1,-6%,5%
O=C(Nc1ccccc1C(=O)O)c1cc(S(=O)(=O)N2CCOCC2)c(Br)s1,2.9%,·,1%,21%
CC1(C)Cc2cccc(OCC(O)CNCc3ccccn3)c2O1 (configuration not stated),1.6%,-9,-2%,14%
CCC(CC)c1nn2c(N)c(/C=C3\C(C)=Nc4ccccc43)c(=O)nc2s1,?,-11,7%,?
COc1cc(C2Nc3ccccc3C(=O)N2c2ccccc2OC)ccc1O (configuration not stated),-4.0%,1,-13%,17%
O=C(COC(=O)C12CC3CC(CC(Cl)(C3)C1)C2)Nc1ccc2[nH]c(=O)[nH]c2c1,-0.4%,·,·,-14%
Nc1ccccc1Sc1ccc(C(F)(F)F)cc1[N+](=O)[O-],-0.8%,-6,-15%,16%
CCCc1nnc(SCC(=O)N2C(C)CCCC2C)n1CC (configuration not stated),-2.5%,-17,-2%,-11%
O=C(CCCOc1ccccc1)NN1C(=O)NC2(CCCCC2)C1=O,-0.2%,·,·,-10%
COc1ccc(NC(C)=O)cc1NC(=O)c1ccc(Cl)cc1,?,-26,-3%,6%
CC(C)(C)n1nnnc1C(c1cccnc1)N1CCN(C(=O)c2ccco2)CC1 (configuration not stated),2.3%,-1,-2%,18%
Cc1cc(C)c(NC(=S)NC(CO)(CO)CO)c(C)c1,2.2%,-7,0%,0%
COC(=O)/C=C(\C)NC(=O)c1ccccc1Cl,4.4%,22,-21%,1%
O=C(NCCCn1ccnc1)c1ccc(Cl)cc1,0.8%,-2,0%,9%
CCOc1ccc2nc(NC(=O)C3CCCN(S(=O)(=O)c4c(C)noc4C)C3)sc2c1 (configuration not stated),2.2%,-21,-11%,-9%
CC(=O)c1ccc(N2CCN(S(=O)(=O)c3cc4[nH]c(=O)c(=O)[nH]c4cc3C)CC2)cc1,0.3%,·,-26%&-28%,-6%

# Not a retest: an excerpt of the list.
SMILES,Rango-impB inh,GLA inh pH 4.5,miR-21 FLuc,Rango release inh
CC(C)(C)n1nnnc1C(c1cccnc1)N1CCN(C(=O)c2ccco2)CC1 (configuration not stated),2.3%,-1,-2%,18%
Cc1cc(C)c(NC(=S)NC(CO)(CO)CO)c(C)c1,2.2%,-7,0%,0%
COC(=O)/C=C(\C)NC(=O)c1ccccc1Cl,4.4%,22,-21%,1%
O=C(NCCCn1ccnc1)c1ccc(Cl)cc1,0.8%,-2,0%,9%
CCOc1ccc2nc(NC(=O)C3CCCN(S(=O)(=O)c4c(C)noc4C)C3)sc2c1 (configuration not stated),2.2%,-21,-11%,-9%
CC(=O)c1ccc(N2CCN(S(=O)(=O)c3cc4[nH]c(=O)c(=O)[nH]c4cc3C)CC2)cc1,0.3%,·,-26%&-28%,-6%

# The results go on:
SMILES,Rango-impB inh,GLA inh pH 4.5,miR-21 FLuc,Rango release inh
Nc1ccc(N2CCN(c3cccc(Cl)c3)CC2)cc1,?,10,-28%,4%
Fc1cc(Br)cc(F)c1NC(=S)N1CCOCC1,3.8%,·,-6%,4%
O=C(Cn1nnc(-c2ccccc2F)n1)Nc1cccc2ncccc12,-2.8%,1,0%,-3%
CC(OC(=O)c1ccc(-c2ccc([N+](=O)[O-])cc2)o1)C(=O)NC(N)=O (configuration not stated),0.2%,0,-8%,20%
Cc1ccc2cccc(OCCCOc3ccccc3F)c2n1,-1.3%,·,-18%,1%
Cc1ccc(C2=NOC3(CC(=O)N(c4ccc(C)cc4)C3=O)C2)cc1 (configuration not stated),-0.3%,0,-5%,2%
CC(Sc1nncs1)C(=O)NC1CCCCC1C (configuration not stated),0.8%,·,0%,?
Cc1ccc(-c2nc(SCC(=O)c3c(N)n(C4CC4)c(=O)[nH]c3=O)n[nH]2)cc1,-1.9%,·,·,12%
O=C(Cn1cncn1)N/N=C/c1ccncc1,1.2%,0,0%,1%
COc1ccc(Nc2ncnc3sc(C)cc23)cc1,1.6%,·,-89%,1%
CSc1ccccc1NC(=O)CN(C)C(=O)COc1ncnc2ccccc12,2.0%,·,·,6%
Cc1ccc(NC(=S)N/N=C2\CC3CC=CC23)c(C)c1 (configuration not stated),1.8%,-1,-5%,25%
COC(=O)c1ccccc1NC(=O)CNC(=O)c1ccc(OC)c(OC)c1,0.2%,-3,-3%,0%
COc1ccc(CCN2C(=O)CCC2(C)C(=O)NCc2cccnc2)cc1OC (configuration not stated),4.2%,-4,-6%,20%
CCOC(=O)C(C)N1C(=O)S/C(=C/c2cc(C)n(-c3ccccn3)c2C)C1=O (configuration not stated),?,-14,3%,-26%
O=[N+]([O-])c1cccnc1Oc1ccccc1F,4.6%,8,-6%,15%
COc1cc2c(c(OC)c1OC)C(c1ccc3c(c1)OCO3)CC(=O)O2 (configuration not stated),4.1%,-8,·,6%
O=C(O)c1cccc(NC2=C(n3nnc4ccccc43)C(=O)c3ccccc3C2=O)c1,-3.6%,-4,-15%,2%
CN(C)CCCN(CCCNC(=O)/C=N/O)Cc1ccccc1,0.0%,8,-2%,12%
CC(C)c1ccc(C(=O)CC2(O)C(=O)N(CN3CCOCC3)c3ccccc32)cc1 (configuration not stated),2.1%,0,-28%,36%
COCCOC(=O)/C(=C/c1ccc(OC(=O)c2ccccc2)cc1)C(C)=O,-0.5%,-4,-11%,-1%
Cn1c(=O)c2cc(S(=O)(=O)NCCC(=O)NC3CCCCCC3)ccc2n(C)c1=O,-2.5%,2,-5%,4%
O=[N+]([O-])c1ccc(N2CCN(S(=O)(=O)c3ccc4ccccc4c3)CC2)cc1NCc1ccco1,1.9%,-14,-30%,4%
COC(=O)C1=CN(Cc2ccccc2)C=C(C(=O)OC)C1c1ccc(OC)c(OC)c1,?,·,0%,13µM*
Brc1ccc(-c2cnnc(N3CCCC3)n2)cc1,?,2,-20%,-15%

# The last 2 entries of the section above are carried over, then new ones follow.
SMILES,Rango-impB inh,GLA inh pH 4.5,miR-21 FLuc,Rango release inh
COC(=O)C1=CN(Cc2ccccc2)C=C(C(=O)OC)C1c1ccc(OC)c(OC)c1,?,·,0%,13µM*
Brc1ccc(-c2cnnc(N3CCCC3)n2)cc1,?,2,-20%,-15%
CCc1ccc(/C=N/NC(=O)c2nnn(-c3nonc3N)c2C(C)C)cc1,0.5%,·,-1%,20%
CCOc1cc(C2C3=C(CC(C)(C)CC3=O)N(CCOC)C3=C2C(=O)CC(C)(C)C3)ccc1O,?,·,-1%,-8%
C=CCn1c(-c2cccc([N+](=O)[O-])c2)n[nH]c1=S,-2.1%,3,1%,-2%
COC(=O)c1cc(S(=O)(=O)NCc2ccccc2Cl)c[nH]1,-1.7%,·,3%,2%
Cc1ccc(-c2cc(C(=O)N3CCOCC3)c3ccccc3n2)o1,?,·,·,-19%
COc1cc(/C=N/NC(=O)CCC(=O)NCc2ccccc2)cc(OC)c1OC,0.0%,-1,-9%,0%
O=C(COC(=O)c1cc(Cl)ccc1O)Nc1ccccc1C(=O)NC1CC1,-2.7%,·,·,15%
